From PubChem
Vaccinia stage: blocks a specific stage of Vaccinia orthopoxvirus infection | Vaccinia-infected cells, mCherry/Venus stage reporter fluorescence; stronger effect = lower value; some inactives read as strong as hits | activity change (mCherry), % (no concentration beside the values) | 89,000 tested, 0.01% active;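 active = mCherry past -33% and 40 or more points under the early reporter, replicates agreeing; inconclusive = past -33% without that gap or agreement; tested in A549 cells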;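 also: scaled between vehicle wells and reference inhibitor wells; 23 nL library stock went into each well; one replicate is shown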
Vaccinia stage Venus: second read-out of Vaccinia stage, no call of its own (marks repeat the call); activity change (Venus), %; measured here: Venus reporter, other viral stage;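 negative = less Venus signal; first of two replicates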
* hit, by the source's call; ? = inconclusive; . = no result given; & = joins results of further samples. This is a subset; count on the stated rates, not on these rows.

Start of the listing, in advance, 2 compounds:
SMILES	Vaccinia stage	Vaccinia stage Venus
C[C@@H]1CN([C@H](C)CO)C(=O)c2cc(NC(=O)Cc3ccccc3)ccc2O[C@@H](C)CCCCO[C@@H]1CN(C)S(C)(=O)=O	12	11
O=C(C[C@H]1C=C[C@H](NC(=O)CN2CCOCC2)[C@H](CO)O1)NCc1cccc(F)c1	4	2

Results, from the start:
SMILES	Vaccinia stage	Vaccinia stage Venus
C[C@@H]1CN([C@H](C)CO)C(=O)c2cc(NC(=O)Cc3ccccc3)ccc2O[C@@H](C)CCCCO[C@@H]1CN(C)S(C)(=O)=O	12	11
O=C(C[C@H]1C=C[C@H](NC(=O)CN2CCOCC2)[C@H](CO)O1)NCc1cccc(F)c1	4	2
COc1ccc(NC(=O)Nc2ccc3c(c2)C(=O)N([C@@H](C)CO)C[C@H](C)[C@H](CN(C)C(=O)Cc2ccccc2)OCCCC[C@H](C)O3)cc1	-27	-27
COc1ccc(S(=O)(=O)Nc2cccc3c2O[C@H](CN(C)CC2CC2)[C@H](C)CN([C@H](C)CO)C3=O)cc1	10	-1
C[C@H]1CN([C@@H](C)CO)C(=O)c2cccc(NS(=O)(=O)c3ccc(F)cc3)c2O[C@H]1CN(C)C	-3	-8
CC(=O)N(C[C@H]1N[C@H](CO)[C@@H]1c1ccccc1)C(C)C	21	17
COc1ccc(NC(=O)N(C)C[C@H]2OCCCC[C@H](C)Oc3ccc(NC(=O)Cc4ccccc4)cc3C(=O)N([C@@H](C)CO)C[C@H]2C)cc1	-9	-9
C[C@@H]1CN([C@H](C)CO)C(=O)c2cc(C#Cc3ccncc3)cnc2O[C@H]1CN(C)C(=O)CN(C)C	15	13
CCCNC(=O)[C@H]1[C@H](CO)[C@H]2Cn3c(ccc(C4=CCCC4)c3=O)[C@@H]1N2CCC(F)(F)F	-2	5
COc1ccc(NC(=O)Nc2ccc3c(c2)C(=O)N([C@H](C)CO)C[C@H](C)[C@H](CN(C)Cc2ccc(C(F)(F)F)cc2)OCCCC[C@H](C)O3)cc1	-10	-10
O=C(NCCc1ccccc1)[C@@H]1[C@@H](CO)[C@@H]2Cn3c(cccc3=O)[C@H]1N2CC1CC1	-5	5
O=C(Cc1ccncc1)NCC[C@H]1CC[C@@H](NC(=O)C2CCCCC2)[C@H](CO)O1	3	3
C[C@@H]1CN([C@H](C)CO)S(=O)(=O)c2ccc(-c3cncnc3)cc2O[C@@H]1CN(C)C(=O)CC1CC1	6	-5
O=C(C[C@H]1CC[C@H](NS(=O)(=O)c2cccc(F)c2)[C@@H](CO)O1)N1CCCCC1	14	9
C[C@@H]1CCCCO[C@H](CN(C)Cc2ccc(C(F)(F)F)cc2)[C@@H](C)CN([C@@H](C)CO)C(=O)c2cc(NC(=O)Nc3ccc(F)cc3)ccc2O1	?	.
O=C(Nc1ccc(F)cc1)N1CC(=O)N2[C@H](C1)[C@H](c1ccc(-c3ccccc3)cc1)[C@@H]2CO	?	.
CCCNC(=O)N(C)C[C@H]1[C@H](c2ccccc2)[C@@H](CO)N1C(=O)c1ccccc1	3	0
C[C@@H]1CN([C@@H](C)CO)C(=O)c2cccc(NC(=O)Nc3ccc(C(F)(F)F)cc3)c2O[C@H]1CN(C)S(C)(=O)=O	-6	1
C[C@@H]1CCCCO[C@H](CN(C)S(=O)(=O)c2ccc(F)cc2)[C@@H](C)CN([C@@H](C)CO)C(=O)c2cc(NS(=O)(=O)c3cn(C)cn3)ccc2O1	1	1
C[C@H]1CN([C@@H](C)CO)C(=O)c2cc(/C=C/c3ccccc3)cnc2O[C@@H]1CN(C)C(=O)c1ccc(F)cc1	-24	-26
OC[C@H]1Nc2ccc(C#Cc3ccc(F)cc3)cc2[C@H]2[C@@H]1CCN2Cc1ccc2c(c1)OCO2	-19	26
Cc1ccc(S(=O)(=O)N[C@@H]2C=C[C@H](CC(=O)NCc3ccccc3F)O[C@@H]2CO)cc1	-17	-12
O=C(C1CCC1)N1CC[C@@H]2[C@H]1c1cc(C#Cc3cccc(F)c3)ccc1N[C@@H]2CO	2	10
COc1cccc(C#Cc2ccc([C@@H]3[C@@H](CO)N(C(=O)C4CC4)[C@H]3C#N)cc2)c1	-23	-10
CCC(=O)N(C)C[C@H]1Oc2ncc(-c3ccccc3OC)cc2C(=O)N([C@@H](C)CO)C[C@H]1C	13	7
CCCC#Cc1ccc2c(c1)O[C@H](CN(C)C(C)=O)[C@H](C)CN([C@@H](C)CO)S2(=O)=O	16	14
C[C@H](CO)N1C[C@H](C)[C@H](CN(C)S(=O)(=O)c2cccs2)Oc2ncc(-c3cc4ccccc4o3)cc2C1=O	16	28
COc1ccc(NC(=O)N(C)C[C@@H]2Oc3ccc(NC(=O)Cn4cnnn4)cc3CC(=O)N([C@@H](C)CO)C[C@@H]2C)cc1	37	40
COc1cccc(-c2ccc3c(c2)[C@@H]2[C@@H](CCN2S(=O)(=O)c2cccc(OC)c2)[C@H](CO)N3)c1	-32	-20
COc1ccc(S(=O)(=O)Nc2ccc3c(c2)CC(=O)N([C@H](C)CO)C[C@H](C)[C@@H](CN(C)Cc2ccc(-c4ccccc4)cc2)O3)cc1	?	.
O=C(C[C@@H]1C=C[C@@H](NC(=O)Cc2ccccn2)[C@@H](CO)O1)NCCCN1CCOCC1	-5	4
CN(C)CCCNC(=O)[C@@H]1[C@@H](CO)[C@@H]2Cn3c(ccc(-c4ccccc4)c3=O)[C@@H]2N1C	-2	10
C[C@H](CO)N1C[C@H](C)[C@H](CN(C)Cc2ccc(C(=O)O)cc2)OCCCC[C@H](C)Oc2ccc(NC(=O)Nc3ccc4c(c3)OCO4)cc2C1=O	15	17
Cc1ccc(S(=O)(=O)Nc2ccc3c(c2)CC(=O)N([C@@H](C)CO)C[C@@H](C)[C@@H](CN(C)C(=O)NC2CCCCC2)O3)cc1	-4	1
Cc1noc(C)c1S(=O)(=O)Nc1ccc2c(c1)C(=O)N([C@@H](C)CO)C[C@H](C)[C@@H](CN(C)Cc1ccccc1)O2	11	10
C[C@H](CO)N1C[C@H](C)[C@@H](CN(C)S(=O)(=O)c2ccc(F)cc2)Oc2ccc(NC(=O)CCN3CCOCC3)cc2C1=O	14	5
C[C@@H]1CN([C@H](C)CO)C(=O)c2cc(N(C)C)ccc2O[C@@H](C)CCCCO[C@H]1CN(C)C(=O)Cc1ccccc1	-19	-14
O=C(O)[C@H]1[C@H](CO)[C@H]2Cn3c(ccc(-c4cccnc4)c3=O)[C@@H]1N2S(=O)(=O)c1ccccc1F	1	2
O=C(c1ccccc1F)N1CC(=O)N2[C@H](CO)[C@H](c3ccc(C#Cc4ccc(F)cc4)cc3)[C@H]2C1	?	.
CO[C@@H]1CN(C)C(=O)c2ccc(NC(=O)Nc3cccc(F)c3)cc2OC[C@@H](C)NC[C@H]1C	2	7
Cc1ccc(S(=O)(=O)N(C)C[C@@H]2Oc3c(NC(=O)c4nc5ccccc5s4)cccc3C(=O)N([C@H](C)CO)C[C@H]2C)cc1	9	2
O=C(C[C@H]1CC[C@@H](NC(=O)Nc2ccc3c(c2)OCO3)[C@H](CO)O1)NCc1ccc2c(c1)OCO2	14	6
COc1cccc(-c2ccc3n(c2=O)C[C@H]2[C@H](CO)[C@@H](C(=O)N4CCOCC4)N[C@@H]32)c1	-8	0
CO[C@H]1CN(C)C(=O)c2ccc(NC(=O)Nc3ccccc3Cl)cc2OC[C@@H](C)NC[C@@H]1C	-27	-13
C[C@H](CO)N1C[C@H](C)[C@@H](CN(C)Cc2ccccc2)Oc2c(NC(=O)C3CCCCC3)cccc2C1=O	-25	-17
COc1ccc([Si](C)(C)[C@H]2[C@H](CC(=O)N(CCO)Cc3ccccc3)O[C@@]3(C(=O)N(C)c4ccccc43)[C@@H]2C)cc1	3	7
C[C@H]1CN([C@@H](C)CO)C(=O)c2cccc(NS(=O)(=O)c3ccc(F)cc3)c2O[C@@H]1CN(C)S(=O)(=O)c1ccccc1	9	0
C[C@@H]1CN([C@H](C)CO)C(=O)c2cc(NC(=O)Nc3ccc(F)cc3)ccc2O[C@H]1CN(C)C(=O)Nc1ccc2c(c1)OCO2	21	13
C[C@H](CO)N1C[C@H](C)[C@@H](CN(C)S(=O)(=O)c2ccccc2)Oc2ccc(NC(=O)Cc3cn(C)c4ccccc34)cc2CC1=O	-13	-4
O=C(NC[C@@H]1[C@H](c2ccccc2)[C@H](CO)N1CC1CCCC1)c1ccccc1	-8	-6
C/C=C/c1ccc([C@@H]2[C@H](CO)N3CCCCN(S(=O)(=O)c4cccc(C)c4)C[C@@H]23)cc1	-22	-25
COc1ccc(NC(=O)N(C)C[C@H]2Oc3ccc(NS(=O)(=O)c4c(C)noc4C)cc3CC(=O)N([C@H](C)CO)C[C@@H]2C)cc1	12	9
C[C@H]1CN([C@@H](C)CO)C(=O)Cc2cc(NC(=O)CCC(F)(F)F)ccc2O[C@@H]1CN(C)S(=O)(=O)c1ccc(F)cc1	1	3
COc1cccc(C#Cc2ccc([C@@H]3[C@@H](CO)N(C(=O)C4CCC4)[C@H]3C#N)cc2)c1	?	.
N#C[C@@H]1[C@H](c2ccccc2)[C@H](CO)N1S(=O)(=O)c1cccc(F)c1	2	-1
CCCNC(=O)C[C@@H]1CC[C@H]2[C@H](COc3ccc(NC(=O)c4cccs4)cc3C(=O)N2C)O1	-15	-13
COc1cccc(NC(=O)N2C[C@H](O)COC[C@H]3O[C@@H](CC(=O)NCc4ccccc4F)CC[C@@H]32)c1	1	2
Cc1ccc(S(=O)(=O)N(C)C[C@H]2OCCCC[C@@H](C)Oc3ccc(NC(=O)Nc4cccc5ccccc45)cc3C(=O)N([C@H](C)CO)C[C@@H]2C)cc1	9	5
COc1ccccc1NC(=O)N1C[C@H]2[C@@H](c3ccccc31)[C@H](CO)N2Cc1ccc2c(c1)OCO2	-22	-8
COCC(=O)N1CC(=O)N2[C@H](CO)[C@@H](c3ccc(-c4cccnc4)cc3)[C@H]2C1	25	14
Remaining list, next part
SMILES	Vaccinia stage	Vaccinia stage Venus
C[C@H](CO)N1C[C@H](C)[C@@H](CN(C)C(=O)Nc2ccccc2)Oc2ncc(-c3ccc(C#N)cc3)cc2C1=O	39&14	20&6
COc1ccc(NC(=O)Nc2ccc3c(c2)C(=O)N([C@@H](C)CO)C[C@@H](C)[C@@H](CN(C)C(=O)Nc2cccc4ccccc24)O3)cc1	22	26
C[C@H](CO)N1C[C@H](C)[C@H](CN(C)C(=O)Nc2ccc3c(c2)OCO3)Oc2ncc(-c3cccc(F)c3)cc2C1=O	-17	-8
C[C@@H](NC(=O)C[C@@H]1C=C[C@@H](NC(=O)C2CC2)[C@H](CO)O1)c1ccccc1	17	16
CCCC#Cc1ccc2c(c1)O[C@@H](CN(C)Cc1ccc3c(c1)OCO3)[C@H](C)CN([C@H](C)CO)S2(=O)=O	?	.
COc1cccc(C#Cc2cnc3c(c2)C(=O)N([C@@H](C)CO)C[C@H](C)[C@H](CN(C)C(C)=O)O3)c1	-2	0
CN1c2ccc(Br)cc2[C@@H]2[C@@H](CCN2C(=O)C2CCCCC2)[C@H]1CO	-25	-20
C[C@@H]1CCCCO[C@H](CN(C)S(C)(=O)=O)[C@@H](C)CN([C@H](C)CO)C(=O)c2cc(NC(=O)Nc3ccc(F)cc3)ccc2O1	-6	-10
NCC[C@H]1CC[C@@H](NS(=O)(=O)c2ccc(Cl)cc2)[C@H](CO)O1	-16	-1
CN1C(=O)c2cc(NS(=O)(=O)c3cccc(F)c3)ccc2OC[C@@H]2O[C@@H](CC(=O)NCCN3CCCCC3)CC[C@@H]21	-3	3
O=C(Cc1cccnc1)N1CC(=O)N2[C@H](CO)[C@H](c3ccc(C4=CCCC4)cc3)[C@@H]2C1	10	11
CC(C)NC(=O)Nc1cccc2c1O[C@@H](CN(C)Cc1ccc3c(c1)OCO3)[C@@H](C)CN([C@H](C)CO)C2=O	-6	-8

Quoted from the listing.
COc1cccc(C#Cc2ccc([C@@H]3[C@@H](CO)N(C(=O)C4CC4)[C@H]3C#N)cc2)c1 | Vaccinia stage Venus: -10
NCC[C@H]1CC[C@@H](NS(=O)(=O)c2ccc(Cl)cc2)[C@H](CO)O1 | Vaccinia stage: -16
O=C(O)[C@H]1[C@H](CO)[C@H]2Cn3c(ccc(-c4cccnc4)c3=O)[C@@H]1N2S(=O)(=O)c1ccccc1F | Vaccinia stage Venus: 2

Other results:
SMILES	Vaccinia stage	Vaccinia stage Venus
COc1ccc2c3c([nH]c2c1)[C@H](CO)N(Cc1ccc(F)cc1)CC31CN(Cc2ccccn2)C1	9	6
C[C@@H]1CN([C@@H](C)CO)S(=O)(=O)c2ccc(C#CC3CCCC3)cc2O[C@H]1CN(C)Cc1cccnc1	?	.
C[C@H]1CN([C@@H](C)CO)S(=O)(=O)c2ccc(C#Cc3ccccc3F)cc2O[C@@H]1CN(C)CC1CCOCC1	?	.
O=C(C[C@@H]1CC[C@@H](NC(=O)CCN2CCCCC2)[C@@H](CO)O1)NCc1ccc(Cl)c(Cl)c1	-5	-6
C[C@H](CO)N1C[C@H](C)[C@H](CN(C)C(=O)C2CCOCC2)Oc2cc(C#Cc3ccncc3)ccc2S1(=O)=O	?	.
C[C@@H](NC(=O)C[C@@H]1C[C@H]2c3cc(NS(=O)(=O)c4ccc(F)cc4)ccc3O[C@H]2[C@@H](CO)O1)c1ccccc1	-4	0
C[C@H](CO)N1C[C@H](C)[C@H](CN(C)C(=O)c2ccc(F)cc2)Oc2cc(-c3cccc(C#N)c3)ccc2S1(=O)=O	-1	5

3 structures already listed, arranged by molecular weight, high to low:
SMILES	Vaccinia stage	Vaccinia stage Venus
C[C@H](CO)N1C[C@H](C)[C@H](CN(C)C(=O)c2ccc(F)cc2)Oc2cc(-c3cccc(C#N)c3)ccc2S1(=O)=O	-1	5
C[C@H]1CN([C@@H](C)CO)S(=O)(=O)c2ccc(C#Cc3ccccc3F)cc2O[C@@H]1CN(C)CC1CCOCC1	?	.
C[C@@H]1CN([C@@H](C)CO)S(=O)(=O)c2ccc(C#CC3CCCC3)cc2O[C@H]1CN(C)Cc1cccnc1	?	.
